GLA inh pH 4.5 – blocks human alpha-galactosidase A at pH 4.5 | P06280 | activity change, negative = inhibition, % at 105 µM | purified enzyme, 4-MU-alpha-Gal fluorescence, pH 4.5 | 230,000 tested, under 10 active; inconclusive = small, poorly fitted or top-dose-only inhibition, or a rising curve; inactive = flat fitted curve, though single readings scatter; no compound was filed as active;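 also: 0% = full activity with enzyme and -100% = basal without enzyme; dose as in the result columns while the protocol names 77 µM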
Target sequence (P06280 whole entry, looked up): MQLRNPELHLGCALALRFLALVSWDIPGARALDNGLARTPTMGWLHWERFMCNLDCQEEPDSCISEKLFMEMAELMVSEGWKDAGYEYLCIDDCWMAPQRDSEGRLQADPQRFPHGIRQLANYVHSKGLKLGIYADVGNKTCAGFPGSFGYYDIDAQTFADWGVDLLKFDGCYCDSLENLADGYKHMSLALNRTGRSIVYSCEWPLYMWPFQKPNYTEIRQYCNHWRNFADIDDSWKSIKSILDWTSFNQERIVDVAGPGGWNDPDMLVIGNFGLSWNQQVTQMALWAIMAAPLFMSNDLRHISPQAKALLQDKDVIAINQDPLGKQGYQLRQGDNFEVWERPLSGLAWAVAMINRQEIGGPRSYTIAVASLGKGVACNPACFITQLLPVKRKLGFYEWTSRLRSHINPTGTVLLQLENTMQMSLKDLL
miR-21 reporter – raises the signal of a miR-21 reporter; HeLa miR-21 FLuc reporter, luciferase, 48 h; Potency, µM (series often up to 38.3 µM), without a hit: at the top dose reporter change, positive = more light; 340,000 tested, under 10 active; AID 2288; active = well fitted rising curve with a large enough effect; inconclusive = small, poorly fitted or top-dose-only effect; inactive = no such curve, though single readings can be large or run the other way;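 also: % of control where 0% means no effect; miR-21 action dims this reporter so a rising signal means less miR-21 action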
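HeLa cells stably expressing CMV-driven firefly luciferase with a downstream miR-21 binding sequence, endogenously expressing miR-21, were treated with titrations (up to about 40uM final) for 48 hours at 37 degree Celsius. Luciferase luminescence was read after lysis.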
Rango-impB inh – inhibitors of Rango-importin beta complex formation | AID 540263 | Q14974 | 340,000 compounds, 0.031% hits | Rango CFP/YFP FRET sensor + importin beta, 45 min | Potency, µM (series often up to 92.2 µM), without a hit: at the highest dose inhibition of complex formation; active = rising FRET ratio curve, often small or poorly fitted; inconclusive = mostly compound fluorescence or quenching in the first reads; inactive = flat curves in all reads;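 also: potency is read from the fitted curve at half-maximal effect; 0% = DMSO wells and 100% = buffer wells lacking importin beta; nearly all actives have a fitted effect of over 15% in size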
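FRET biosensor Rango (snurportin 1 IBB between N-terminal EYFP and C-terminal Cerulean), 50 nM in PBS/1 mM DTT/0.02% Tween-20/0.1% BSA, preincubated 5 min RT with compound; 0.125 microM importin beta added, 45 min RT, CFP/YFP FRET ratio read.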
Rango release inh – prevents RanGTP from dissociating the Rango-importin beta complex; Potency, µM (highest dose often 46.1 µM), without a hit: top-dose activity change, negative = inhibition; 340,000 compounds, 0.071% hits; O95149+P62826; Biochemical FRET Rango-importin beta, RanGTP-induced dissociation; active means falling FRET ratio curve, often poorly fitted, with flat reads before Ran was added; inconclusive means other falling curves, or compound fluorescence or quenching; inactive means flat or rising ratio curve;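 also: potency is read from the fitted curve at half-maximal effect; % of control where 0% means no effect; nearly all actives have a fitted effect of over 45% in size; -100% = wells without RanGTP and RCC1; the record marks most hits as doubtful in a second field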
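Compounds sat 5 min at room temperature with 0.1 uM Rango biosensor plus 0.25 uM importin beta, then FRET pre-read. RanGTP-RCC1 (0.6 uM Ran, 2mM GTP, 0.2 uM RCC1) added for 45 min, and the CFP/YFP post-read measured blocked complex dissociation.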
Active calls of the source: *; & = joins results of further samples. An excerpt (hit frequency here may not be typical).

Screening CCOc1ccc(S(=O)(=O)N2CCN(C(=O)c3sccc3C)CC2)cc1 returned GLA inh pH 4.5 2, miR-21 reporter 0%, Rango-impB inh -4.4% and Rango release inh -12%.
`COc1cccc(CNC(=O)C2CCN(S(=O)(=O)c3ccc4c(c3)CC(C)N4C(C)=O)CC2)c1` (centres undefined) gave miR-21 reporter 6%, Rango-impB inh -5.8% and Rango release inh 3%.
CC(C#N)(NC(=O)CN1CCN(S(=O)(=O)c2cc(C(F)(F)F)ccc2Cl)CC1)C1CC1 (centres undefined) was read as Rango-impB inh 3.9% and Rango release inh -1%.
For COc1ccc(-c2noc(-c3cccnc3)n2)cc1OC the results were GLA inh pH 4.5 -1, miR-21 reporter -82%, Rango-impB inh 0.2% and Rango release inh -14%.
Cc1nnc(N/N=C/c2ccc(Br)cc2)n1N was read as miR-21 reporter -6%, Rango-impB inh 1.0% and Rango release inh 8%.
For C[C@@H]1CC=C[C@H]2[C@H]1C(=O)N(Cc1ccccc1)[C@H]2c1ccc(C(F)(F)F)cc1 the results were GLA inh pH 4.5 -6, miR-21 reporter 8%, Rango-impB inh 2.2% and Rango release inh -2%.
For O=C(Nc1nsc(-c2ccccc2)n1)c1cccs1 the results were GLA inh pH 4.5 4, miR-21 reporter -13%, Rango-impB inh 3.9% and Rango release inh -2%.
`O=[N+]([O-])c1cccc(COc2ccccc2CN2CCCC2)c1` gave Rango-impB inh 1.5% and Rango release inh 3%.
For CCNC(=O)NCc1c(C)c(C)n(Cc2ccccc2)c1-n1cccc1 the results were GLA inh pH 4.5 4, miR-21 reporter 4%, Rango-impB inh 1.8% and Rango release inh -8%.
For CCOC(=O)c1cnc2c(C)cc(Cl)cc2c1NCCCN1CCOCC1 the results were miR-21 reporter 1%, Rango-impB inh -0.6% and Rango release inh 14%.

Sorted by count of non-hydrogen atoms (descending): part of the list above
`COc1cccc(CNC(=O)C2CCN(S(=O)(=O)c3ccc4c(c3)CC(C)N4C(C)=O)CC2)c1` (centres undefined) gave miR-21 reporter 6%, Rango-impB inh -5.8% and Rango release inh 3%.
CC(C#N)(NC(=O)CN1CCN(S(=O)(=O)c2cc(C(F)(F)F)ccc2Cl)CC1)C1CC1 (centres undefined) was read as Rango-impB inh 3.9% and Rango release inh -1%.
For C[C@@H]1CC=C[C@H]2[C@H]1C(=O)N(Cc1ccccc1)[C@H]2c1ccc(C(F)(F)F)cc1 the results were GLA inh pH 4.5 -6, miR-21 reporter 8%, Rango-impB inh 2.2% and Rango release inh -2%.
For CCOC(=O)c1cnc2c(C)cc(Cl)cc2c1NCCCN1CCOCC1 the results were miR-21 reporter 1%, Rango-impB inh -0.6% and Rango release inh 14%.
For CCNC(=O)NCc1c(C)c(C)n(Cc2ccccc2)c1-n1cccc1 the results were GLA inh pH 4.5 4, miR-21 reporter 4%, Rango-impB inh 1.8% and Rango release inh -8%.
`O=[N+]([O-])c1cccc(COc2ccccc2CN2CCCC2)c1` gave Rango-impB inh 1.5% and Rango release inh 3%.
For COc1ccc(-c2noc(-c3cccnc3)n2)cc1OC the results were GLA inh pH 4.5 -1, miR-21 reporter -82%, Rango-impB inh 0.2% and Rango release inh -14%.
For O=C(Nc1nsc(-c2ccccc2)n1)c1cccs1 the results were GLA inh pH 4.5 4, miR-21 reporter -13%, Rango-impB inh 3.9% and Rango release inh -2%.
Cc1nnc(N/N=C/c2ccc(Br)cc2)n1N was read as miR-21 reporter -6%, Rango-impB inh 1.0% and Rango release inh 8%.

Continuation.
Screening CCOc1ccc(N(CC(=O)NCc2ccc(OC)cc2)S(C)(=O)=O)cc1 returned miR-21 reporter -59%, Rango-impB inh -1.4% and Rango release inh -22%.
For Nc1n[nH]c(C(F)(F)F)c1-c1ccccc1 the results were GLA inh pH 4.5 -2, miR-21 reporter 3%, Rango-impB inh -1.1% and Rango release inh -7%.
For O=C(Cc1c[nH]c2ccccc12)NCc1ccc(Cl)cc1 the results were GLA inh pH 4.5 -15, miR-21 reporter -25%, Rango-impB inh 3.9% and Rango release inh -2%.
`C=CCNc1ncnc2ccc(Br)cc12` gave GLA inh pH 4.5 3, miR-21 reporter 29%, Rango-impB inh -0.1% and Rango release inh -14%.
For COC(=O)c1ccc(NS(=O)(=O)NC(=O)c2c[nH]c3ccccc23)cc1 the results were miR-21 reporter -3%, Rango-impB inh 0.6% and Rango release inh 10%.
`O=C(/C=C/c1ccc([N+](=O)[O-])cc1)NCc1ccc2c(c1)OCO2` gave GLA inh pH 4.5 2, miR-21 reporter -2%, Rango-impB inh -4.9% and Rango release inh -7%.
Cc1ccsc1C(=O)NCCc1ccc(S(N)(=O)=O)cc1 was read as miR-21 reporter -4%, Rango-impB inh -0.6% and Rango release inh 5%.
For CC(C)CNC(=O)C(=O)NCC1OCCCN1S(=O)(=O)c1ccc2c(c1)OCCO2 (centres undefined) the results were miR-21 reporter -4%, Rango-impB inh 0.9% and Rango release inh 4%.
Screening NC(=O)c1c(NC(=O)C2COc3ccccc3O2)sc2c1CCN(Cc1ccccc1)C2 (centres undefined) returned GLA inh pH 4.5 3, miR-21 reporter 5%, Rango-impB inh inconclusive and Rango release inh inconclusive.
Cc1ccccc1NC(=O)CSc1nnc(NC(=O)c2ccco2)s1 was read as miR-21 reporter -5%, Rango-impB inh inconclusive and Rango release inh 16%.
`CCc1cccc(CC)c1-n1c(SCC(=O)c2c(N)n(C)c(=O)n(C)c2=O)nnc1-c1cccnc1` gave GLA inh pH 4.5 5, miR-21 reporter -3%, Rango-impB inh 0.8% and Rango release inh -10%.
For COC(=O)c1c(N)sc(C(C)=O)c1C the results were GLA inh pH 4.5 3, miR-21 reporter -9%, Rango-impB inh -2.4% and Rango release inh -4%.
For C/C(CC(=O)Nc1ccc([N+](=O)[O-])cc1)=N\NC(=O)c1ccccc1[N+](=O)[O-] the results were miR-21 reporter 2%, Rango-impB inh 0.4% and Rango release inh -8%.
For CN(C)c1ccc(C=c2c3ccccc3n3c2cc(-c2ccc(Cl)cc2)[n+]3C)cc1 the results were Rango-impB inh inconclusive and Rango release inh inconclusive.
Screening COCCNC(=S)N/N=C(\C)c1ccc(Cl)s1 returned GLA inh pH 4.5 5, miR-21 reporter -2%, Rango-impB inh -4.2% and Rango release inh -2%.
`O=C(NCCN1CCCC1=O)Nc1ccccc1` gave GLA inh pH 4.5 8, miR-21 reporter -6%, Rango-impB inh -2.3% and Rango release inh -16%.
For Cc1ccccc1Oc1ccc(S(=O)(=O)NCCC(=O)O)cc1 the results were GLA inh pH 4.5 0, miR-21 reporter -6%, Rango-impB inh 1.5% and Rango release inh 1%.
CCc1ccc2c(c1)c1nnc(NN)nc1n2CC was read as GLA inh pH 4.5 6, miR-21 reporter -13%, Rango-impB inh -1.2% and Rango release inh 11%.
C[C@@]12C(=O)Nc3cc(F)ccc3C(=O)N1[C@H]1c3ccccc3OC[C@@H]1[C@@H]2c1ccccc1 was read as Rango-impB inh 0.2% and Rango release inh 16%.
Oc1ccc(Oc2ccc3c(C(F)(F)F)cc(C(F)(F)F)nc3n2)cc1 was read as GLA inh pH 4.5 4, miR-21 reporter 27%, Rango-impB inh 1.0% and Rango release inh 2%.
For COc1ccc(N2CC(NS(=O)(=O)c3cccs3)CC2=O)cc1OC (centres undefined) the results were Rango-impB inh 2.7% and Rango release inh -13%.
For COc1cc(C(=O)Nc2ccc(NC(=O)c3ccco3)nc2)cc(OC)c1OC the results were GLA inh pH 4.5 0, miR-21 reporter 1%, Rango-impB inh 2.4% and Rango release inh 12%.
`Cc1cc2cc(CCNC(=O)CCCc3ccccc3)c(=O)[nH]c2cc1C` gave miR-21 reporter -1%, Rango-impB inh -1.5% and Rango release inh -3%.
Cn1cccc1C(=S)N=P(C1CCCCC1)(N1CCOCC1)N1CCOCC1 was read as GLA inh pH 4.5 0, miR-21 reporter -1%, Rango-impB inh 3.4% and Rango release inh 0%.
CCCCNC(=O)C1(NC(=O)Nc2ccccc2)CCCCC1 was read as GLA inh pH 4.5 5, miR-21 reporter -3%, Rango-impB inh -4.3% and Rango release inh 3%.
For CCc1ccc(NC(=O)COc2ccc(Br)cn2)cc1 the results were GLA inh pH 4.5 -2, miR-21 reporter -10%, Rango-impB inh -0.8% and Rango release inh -17%.
`CCC(O)CNC(=O)NC(=C(Cl)Cl)c1ccc(C)c(F)c1` (centres undefined) gave GLA inh pH 4.5 -4, miR-21 reporter 16%, Rango-impB inh -0.1% and Rango release inh 17%.
Screening CC1CCCN(C(=O)C(C)Sc2nc(-c3ccccc3)cc(C(F)(F)F)n2)C1 (centres undefined) returned GLA inh pH 4.5 0, miR-21 reporter 0%, Rango-impB inh -0.7% and Rango release inh -11%.
`COc1ccccc1NC(=O)CSc1ncc(CO)n1Cc1ccc(F)cc1` gave miR-21 reporter -4%&-6%, Rango-impB inh -0.5% and Rango release inh -15%.
Screening Cc1sc2nc(CSc3nc4ccccc4s3)[nH]c(=O)c2c1C returned GLA inh pH 4.5 -1 and miR-21 reporter -16%.
`COc1ccc(C(=O)NCCS(=O)(=O)N2CCC3(CC2)OCCO3)cc1` gave Rango-impB inh 3.3% and Rango release inh -9%.
Screening CCC(C)NC(=O)C1CCN(C(=O)COc2ccc3c4c(c(=O)oc3c2C)CCCC4)CC1 (centres undefined) returned miR-21 reporter 1%, Rango-impB inh -2.2% and Rango release inh -2%.
Screening COc1ccc(-c2cc3ccccc3n2CC(O)CN2CCOCC2)cc1 (centres undefined) returned GLA inh pH 4.5 14, miR-21 reporter -10%, Rango-impB inh -3.3% and Rango release inh -9%.
For CCCCOc1ccc(C(=O)NCC(=O)NCC(c2ccco2)N2CCCCC2)cc1 (centres undefined) the results were Rango-impB inh -0.9% and Rango release inh -5%.
For COc1cccc(-n2c(=S)sc3c(=O)n(-c4ccccc4C)c(SCC(=O)O)nc32)c1 the results were miR-21 reporter -3%, Rango-impB inh 1.4% and Rango release inh 20%.
CCOC(=O)C1(Cc2ccccc2C(F)(F)F)CCN(Cc2ccc(COC)o2)CC1 was read as GLA inh pH 4.5 -3, miR-21 reporter 9%, Rango-impB inh 1.4% and Rango release inh -20%.
For COc1ccc(C(C(=O)NC2CCCC2)N(C(=O)c2csnn2)C2CC2)cc1 (centres undefined) the results were miR-21 reporter -1%, Rango-impB inh 3.9% and Rango release inh -13%.
Screening O=C(NC1CC1)c1cccc(Nc2ccc(-c3ccc4c(c3)OCCO4)nn2)c1 returned GLA inh pH 4.5 4, miR-21 reporter 13%, Rango-impB inh -2.2% and Rango release inh 1%.
For COCCCN1CC(=O)N2C(c3cccc(OC)c3)c3[nH]c4ccccc4c3C[C@H]2C1=O (some centres undefined) the results were miR-21 reporter -1%, Rango-impB inh 1.0% and Rango release inh -2%.
Screening CCOc1ccccc1NC=C1C(=O)OC(C)(C)OC1=O returned GLA inh pH 4.5 -19, miR-21 reporter 1%, Rango-impB inh -1.0% and Rango release inh 26%.
Screening COC(=O)[C@@]1(Cc2ccccc2)[C@H]2C(=O)N(C)C(=O)[C@H]2[C@H]2CN=C(SCc3ccccc3)N21 returned Rango-impB inh 4.3% and Rango release inh 2%.
Screening Cc1ccc(C)c(NC2=NCC(=O)N2C2CCCCC2)c1 returned GLA inh pH 4.5 -16, miR-21 reporter 0%, Rango-impB inh 0.9% and Rango release inh -15%.
O=C(NC(c1ccc(Cl)cc1)c1cc(Cl)c2cccnc2c1O)c1cccnc1 (centres undefined) was read as GLA inh pH 4.5 -3, miR-21 reporter 11%, Rango-impB inh 6.6% and Rango release inh -10%.
O=C1CN(C(=O)COC(=O)/C=C/c2ccc(OC(F)F)cc2)c2ccccc2N1 was read as GLA inh pH 4.5 5, miR-21 reporter 15%, Rango-impB inh -0.9% and Rango release inh -10%.
Screening CN(C)c1oc(COc2ccccc2F)nc1C#N returned GLA inh pH 4.5 -4, miR-21 reporter -40%, Rango-impB inh -0.2% and Rango release inh 4%.

A stretch taken from the entries so far, for reference:
O=C1CN(C(=O)COC(=O)/C=C/c2ccc(OC(F)F)cc2)c2ccccc2N1 was read as GLA inh pH 4.5 5, miR-21 reporter 15%, Rango-impB inh -0.9% and Rango release inh -10%.
Screening CN(C)c1oc(COc2ccccc2F)nc1C#N returned GLA inh pH 4.5 -4, miR-21 reporter -40%, Rango-impB inh -0.2% and Rango release inh 4%.

Screening data from PubChem BioAssay.
